# From PubChem
# V. cholerae motility: Vibrio cholerae motility inhibitors, OD read-out (AID 588778). Vibrio cholerae motility, OD read-out; higher % means a stronger effect; test concentration not given here; primary cut-off and reference of the scale not given here; strong numbers were not always called active. inhibition, %; hits with a dose series show IC50 in µg/mL. 10,000 tested, under 10 active; in the data active = confirmed in a dose series; inconclusive = primary hit not retested
# V. cholerae motility viability: further read-out of V. cholerae motility, marked with its call; inhibition, %; measured here: bacterial viability at 10 ug/mL;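 higher means fewer living bacteria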
# An asterisk follows results filed as active; i = inactive; ? = inconclusive; . = not tested or not shown. An excerpt. The share of hits here may be higher or lower than overall.
SMILES,V. cholerae motility,V. cholerae motility viability
Cc1c(N=C2NC(=O)C(CC(=O)Nc3ccc(Cl)cc3)S2)c(=O)n(-c2ccccc2)n1C (configuration not stated),-3.1%,22.7
O=C(CN1C(=O)c2cccc3cccc(c23)C1=O)N1CCC(Cc2ccccc2)CC1,3.1%,20.6
O=C(CC(O)(C(F)(F)F)C(F)(F)F)Nc1ccn(Cc2ccccc2F)n1,2.2%,-0.9
COc1ccc(-c2coc3c(C)c4oc(=O)c5c(c4cc23)CCC5)cc1F,-2.8%,-4.3
COC(=O)C1(C(O)c2ccc(Cl)cc2)CCCCC1 (configuration not stated),-1.4%,-4.8
c1ccc(C[n+]2ccc(-c3nc4ccccc4[nH]3)cc2)cc1,5.3%,3.5
COC(=O)c1ccccc1NC(=O)N1CCN(S(=O)(=O)c2ccc(Cl)cc2)CC1,5.7%,19.2
CC1CCc2cc(F)ccc2N1C(=O)C1(C)CC1(Cl)Cl (configuration not stated),4.0%,2.0
Cc1ccc(S(=O)(=O)N2C(=O)CCC2c2nc(-c3ccccc3)no2)cc1 (configuration not stated),19.3%,2.5
CCOC(=O)C1CCN(Cc2nc(-c3ccc(OC)c(OC)c3)no2)CC1,1.4%,-1.7
CCC(C(=O)Nc1ncn[nH]1)c1ccccc1 (configuration not stated),?,.
COc1cc(CNC2CCCc3ccccc32)cc(OC)c1 (configuration not stated),15.3%,10.7
CCOC(=O)C(Cc1ccccc1Cl)(NC(C)=O)C(=O)OCC,19.0%,-4.9
COc1ccc(NC(=S)N2CCCC2C(=O)N2CCCC2)cc1 (configuration not stated),41.3%,7.7
Cc1cc(C)c(C#N)c(SCc2nnnn2-c2ccccc2)n1,1.9%,-4.0
COc1ccc2cc(Br)ccc2c1CC(=O)Nc1cc(C)on1,-1.6%,-12.4
COc1cc(C23CC4CC(CC(C4)C2)C3)ccc1C(=O)n1ccnc1,-4.0%,-5.2
COc1ccc(-c2[nH]ncc2-c2ccccc2Cl)c(O)c1,9.9%,-0.2
O=C(CSc1ccccc1)N1CCC2(CC1)OCCO2,2.2%,0.4
CSC1CCCCC1(O)CSc1nc2ccccc2o1 (configuration not stated),9.5%,-1.3
CCN1CCN(C2CCN(Cc3cccc4ccccc34)CC2)CC1,6.6%,9.5
Fc1ccc(Nc2ncnc3sc(-c4ccccc4)cc23)cc1,-40.8%,-14.7
O=S(=O)(Nc1ncccn1)c1ccc(NC(=S)Nc2cnn(Cc3ccc(Br)cc3)c2)cc1,-17.5%,-8.9
O=C(CN(c1ccc(F)cc1)S(=O)(=O)c1ccc2c(c1)OCCO2)NCc1ccncc1,-0.6%,4.1
S=C(Nc1ccc(Nc2ccccc2)cc1)NC1CC1,8.3%,3.9
CCc1sc(C(=O)Nc2ccsc2C(=O)OC)cc1Br,-20.1%,-4.1
COC(=O)c1ccc(-n2cccn2)cc1,-7.1%,-2.3
O=C(O)C1CC=CCC1C(=O)N1CC=C(c2ccccc2)CC1 (configuration not stated),19.3%,32.9
Cc1cccc(CN2CCN(Cc3ccc(Cl)cc3)CC2)c1,-1.8%,-2.0
CSc1nc2c(c(-c3ccc(O)cc3)c1C#N)CCC2,-4.2%,21.4
CCCc1cc2c(cc1N)OCO2,-0.9%,-3.4
CCC(=O)NC(=S)Nc1cccc2ncccc12,0.0%,0.4
CN1CC(CO)O/C1=C(C#N)\C=C1\Nc2ccccc2C1=O (configuration not stated),1.4%,5.2
O=C(c1ccc(Cn2cc(Br)cn2)cc1)N1CCN(c2ccccc2)CC1,-3.4%,-3.9
O=C(NC(=S)Nc1nc(-c2ccc(Br)cc2)cs1)c1cccs1,13.0%,8.9
O=C(NCCC1=CCCCC1)C(=O)NCCN1CCOCC1,-1.6%,-1.9
COc1ccc(Br)cc1CNCc1cccs1,84.4%,24.4
O=C(Nc1cccc(Cl)c1)c1c(Br)sc2c1CCCC2,-3.4%,-4.8
O=C(Nc1nn[nH]n1)c1ccc(-c2ccccc2)cc1,10.9%,3.2
COC(=O)c1ccccc1NC(=O)c1ccc(-c2ccc([N+](=O)[O-])cc2)o1,8.2%,5.2
CC(C)(C)C(=O)NC(=S)NNC(=O)C(c1ccccc1)c1ccccc1,46.5%,-2.2
CC(Sc1n[nH]c(=O)n1-c1ccccc1)C(=O)Nc1nccs1 (configuration not stated),5.7%,0.7
CCOC(=O)c1c(Nc2ccccc2N)cc(C)nc1C,-23.8%,-10.6
CCOC(=O)C(=O)CC(=O)c1ccc(Cl)cc1,10.2%,3.2
C=CCc1ccc(OC(=O)NC2CCCCC2)c(OC)c1,-17.7%,-9.4

# Reprinted at random: two records from the list
SMILES,V. cholerae motility,V. cholerae motility viability
CC(Sc1n[nH]c(=O)n1-c1ccccc1)C(=O)Nc1nccs1 (configuration not stated),5.7%,0.7
O=C(Nc1nn[nH]n1)c1ccc(-c2ccccc2)cc1,10.9%,3.2

# Remaining list, next part.
SMILES,V. cholerae motility,V. cholerae motility viability
NS(=O)(=O)c1ccc(CNC(=O)c2ccc(Cl)s2)cc1,12.1%,18.5
CC(C)COc1ccc(C(=O)NC2CCS(=O)(=O)C2)cc1 (configuration not stated),-4.7%,-1.6
C=CCn1c(C)c(C(C)=O)c(N2CCOCC2)nc1=S,-12.5%,-4.8
CCCC(=O)c1cc(-c2nc3ccccc3n2C)n(C)c1,1.8%,7.9
S=C1NC(C23CC4CC(CC(C4)C2)C3)=CC(c2ccc(Cl)cc2)N1 (configuration not stated),-6.8%,-4.1
O=C1CCCC(O)=C1C1=NC2(CCCCCC2)Cc2ccccc21,11.4%,25.8
CCn1c(C)c(/C=C(/C#N)c2ccc(C#N)cc2)c2ccccc21,-18.9%,-8.2
CCc1cc2c(NCc3ccco3)ncnc2s1,10.2%,1.2
CCCCSc1ccc(NC(=O)c2cccnc2)cc1,4.4%,1.0
O=[N+]([O-])c1ccccc1CN1CCC(N2CCN(c3ccccc3F)CC2)CC1,0.8%,-0.5
O=C(CN1CCN(C(=O)N2CCCCC2)CC1)Nc1cc(Cl)ccc1Cl,19.4%,2.2
N#Cc1ccc2ccn(CC(=O)N3CCCc4ccccc43)c2c1,-20.8%,-4.0
Clc1ccc(OCCNCc2ccco2)cc1,18.9%,5.2
Cc1nn(Cc2ccc(F)cc2)c(C)c1NC(=O)c1cccc(COc2ccc3c(c2)CCC3)c1,-14.6%,-10.4
COc1cc(OC)nc(NC(=S)Nc2ccc(F)cc2)n1,1.3%,-2.5
Cc1nc2nc(COc3ccccc3)nn2c(C)c1Cl,4.3%,-2.8
CN(C)c1ccc(NC(=O)Nc2cccc3ccccc23)cc1,3.1%,-6.3
O=[N+]([O-])c1cnn(Cc2ccc(F)cc2)c1,-12.9%,-3.9
Cc1cccnc1NC(=S)Nc1ccc(S(N)(=O)=O)cc1,1.4%,-2.1
O=C1c2ccccc2C(=O)N1n1c(=O)[nH]c2ccccc2c1=O,4.5%,-3.0
Nc1cc(=O)[nH]c(=S)n1-c1cccc(C(F)(F)F)c1,17.3%,4.7
C=CCn1c(COc2ccccc2Cl)nnc1SCC(=O)NC1CCCC1,i,99.9
COc1ccccc1Nc1n[nH]c(=S)n1C(=O)c1cccs1,-27.3%,-10.8
CC(=O)OC(C(=O)Oc1ccc2c(c1)C(C)=CC(C)(C)N2)c1ccccc1 (configuration not stated),4.4%,-4.2
CCOc1ccc(N2C(=O)CC(Sc3ccccn3)C2=O)cc1 (configuration not stated),36.3%,9.5
O=C(CSc1ccc(Cl)cc1)OCC(=O)c1ccccc1,-4.2%,-3.0
COc1ccc(C(=O)Nc2n[nH]c(-c3ccncc3)n2)cc1,2.1%,3.3
CCOC(=O)c1nnn(-c2nonc2N)c1CN1CCC(C(=O)OCC)CC1,8.1%,1.2
CCOC(=O)N1CCN(C(=O)C2CCN(C(=O)c3cc(OC)cc(OC)c3)CC2)CC1,-0.3%,-3.3
c1csc(-c2nn3c(Cn4cnc5ccccc54)nnc3s2)c1,2.1%,4.2
Cc1nn(CC(O)Cn2cnc3c2c(=O)n(C)c(=O)n3C)c(C)c1Br (configuration not stated),-5.1%,-7.3
COc1ccccc1N1CCN(C(=O)c2ccc(CSc3ccc(Cl)cc3)cc2)CC1,9.3%,0.5
CCOC(=O)C1CCCCN1Cc1ccc(Br)cc1 (configuration not stated),-6.4%,-7.3
O=C(Nc1cc(Cl)ccc1O)c1ccc2c(c1)C(=O)N(Cc1cccnc1)C2=O,-1.9%,-4.2
Cn1nnc2cc(NC(=O)Oc3ccc(C(C)(C)C)cc3)ccc21,-10.3%,-2.0
Cc1occc1C(=O)N1CCC2(CC1)OCCO2,10.7%,2.8
CCOC(=O)C1=C(C)NC(C)=C(C(=O)OCC)C1,0.4%,6.6
Cc1c(C)c(C)c2c(CC(C)N)c[nH]c2c1C (configuration not stated),25.6%,11.5
CC(C)CN(Cc1c(O)ccc2c(=O)c(-c3ccccc3Cl)coc12)CC(C)C,-16.6%,-8.5
C#CCOc1ccc(CNc2cc(Cl)ccc2C)cc1Br,5.7%,2.2
O=[N+]([O-])c1ccc(N2CCN(C(=S)Nc3ccc(F)cc3F)CC2)cc1,-20.3%,-7.5
Cc1cc(=O)[nH]c(SCc2ccc(C(=O)Nc3nccs3)cc2)n1,-19.1%,-10.3
C=CCOc1c(CNC(C)(C)CO)cccc1OCC,-2.9%,3.5
Oc1ccccc1CNc1ccc(C2CCCCC2)cc1,-6.0%,-7.9
S=C(Cc1ccc2c(c1)CCCC2)N1CCOCC1,2.5%,-5.5

# By substructure: the entries above containing a CF3 group (2)
SMILES,V. cholerae motility,V. cholerae motility viability
O=C(CC(O)(C(F)(F)F)C(F)(F)F)Nc1ccn(Cc2ccccc2F)n1,2.2%,-0.9
Nc1cc(=O)[nH]c(=S)n1-c1cccc(C(F)(F)F)c1,17.3%,4.7

# (continued)
SMILES,V. cholerae motility,V. cholerae motility viability
Cc1sc2nc(SCc3n[nH]c(=S)n3-c3ccccc3)[nH]c(=O)c2c1C,9.6%,1.4
COc1ccc(S(=O)(=O)N2CCC(C(=O)NNC(=S)NC(C)c3ccccc3)CC2)cc1 (configuration not stated),4.7%,2.7
COc1ccc(Cl)cc1NC(=O)c1c(NCc2ccccn2)sc2c1CCCCC2,6.5%,1.0
O=c1c2c([nH]c3ccccc13)C(=C1CCCC1)CC2,71.2%,19.6
O=C(Nc1cccnc1)c1ccc2c(c1)C(=O)N(Cc1ccco1)C2=O,-9.4%,14.0
OC(C#CCN1CCCC1)c1ccccc1 (configuration not stated),-8.3%,-1.8
O=C(Cc1cccc2ccccc12)Nc1cc(C(F)(F)F)ccc1N1CCOCC1,-12.1%,1.7
O=C(CS(=O)(=O)Cc1ccccc1)N1CCN(c2cccc(C(F)(F)F)c2)CC1,-1.8%,-4.3
CC(=O)c1cccc(NC(=S)NCc2ccc(C(=O)O)cc2)c1,-2.2%,-6.8
Cc1ccc2nsnc2c1NC(=O)Cc1cccc2ccccc12,0.1%,0.8
CC(=O)c1c(C(C)=O)c(C)n(Cc2ccc3c(c2)OCO3)c1C,11.6%,39.2
COc1ccc(CCCc2nnc(SCc3ccc(Br)cc3)o2)cc1,12.8%,-0.2
COCC(=O)Nc1ccc([N+](=O)[O-])cc1Cl,1.2%,-3.2
Cc1cc(=O)c2cc(Br)ccc2[nH]1,18.2%,-2.8
Nc1nc2c(s1)COc1ccccc1-2,-30.2%,-10.2

# 7 neighbouring compounds from above, quoted:
SMILES,V. cholerae motility,V. cholerae motility viability
CC(=O)c1cccc(NC(=S)NCc2ccc(C(=O)O)cc2)c1,-2.2%,-6.8
Cc1ccc2nsnc2c1NC(=O)Cc1cccc2ccccc12,0.1%,0.8
CC(=O)c1c(C(C)=O)c(C)n(Cc2ccc3c(c2)OCO3)c1C,11.6%,39.2
COc1ccc(CCCc2nnc(SCc3ccc(Br)cc3)o2)cc1,12.8%,-0.2
COCC(=O)Nc1ccc([N+](=O)[O-])cc1Cl,1.2%,-3.2
Cc1cc(=O)c2cc(Br)ccc2[nH]1,18.2%,-2.8
Nc1nc2c(s1)COc1ccccc1-2,-30.2%,-10.2

# Remaining list, next part:
SMILES,V. cholerae motility,V. cholerae motility viability
COc1ccc(CCNC(=O)c2cc3cc(F)ccc3nc2C)cc1OC,1.6%,-1.8
O=S(=O)(Nc1nc(-c2ccccc2)c(-c2ccccc2)o1)c1ccc(Cl)cc1,15.9%,8.2
O=[N+]([O-])c1ccc(O)c(-c2nc(-c3cccs3)c(-c3cccs3)[nH]2)c1,14.0%,31.4
N#CCCSCc1ccc2oc(C(=O)O)cc2c1,-4.9%,-2.1
O=C(CSc1nnc(-c2ccncc2)o1)Nc1ccccc1F,-14.7%,-0.6
Cc1cccc(N/C(N)=N/c2nc(C)cc(C)n2)n1,1.7%,1.1
O=C(Oc1ccccc1)c1ccc(COc2cccc3ccccc23)o1,-4.9%,-4.8
CCOC(=O)c1conc1-c1cccnc1,-10.9%,-5.8
CSCC(NS(=O)(=O)c1ccc(Br)cc1)C(=O)O (configuration not stated),14.1%,19.1
COC(=O)NCCOc1ccc(C(C)(C)C)cc1,15.7%,4.2
O=C(COc1ccc([N+](=O)[O-])cc1)Nc1nc2ccc(Cl)cc2s1,1.6%,1.7
COc1ccccc1Nc1nc(C)cc(C)c1C(N)=O,-3.0%,-5.1
O=C(Nc1ccc(N2CCOCC2)c2nonc12)c1cc2c(s1)CCCC2,17.2%,-3.2
CCOC(=O)N1CCN(c2ccc(C(F)(F)F)cn2)CC1,5.4%,-0.8
O=[N+]([O-])c1ccc(S(=O)(=O)c2cnc(NS(=O)(=O)c3ccc(Cl)cc3)s2)cc1,0.0%,-1.5
O=C(Nc1ccccc1-c1nc2ccccc2[nH]1)c1ccccc1I,3.0%,1.7
Cc1c(C(=O)Nc2nc(C(C)(C)C)cs2)oc2ccccc12,0.3%,5.0
CCOC(=O)C(C)Oc1noc2nc(-c3ccccc3)ccc12 (configuration not stated),0.6%,-3.6
CCn1c(NNC(=O)c2cccnc2)nc2ccccc21,14.7%,5.4
CC(=O)c1ccc(NC(=S)Nc2ccc(S(=O)(=O)Nc3ccccc3C)cc2)cc1,2.7%,-0.9
Cc1ccc(-c2nc3ccccc3nc2-c2ccccc2)cc1,-18.5%,-12.1
CS(=O)(=O)N1CCN(C(=O)Cc2ccccc2Cl)CC1,7.7%,5.0
Cc1cc(OCC(=O)N2CCOCC2)ccc1NC(=O)c1ccccc1Sc1ccccc1C#N,6.1%,0.9
